Vaccinia pol inh = vaccinia E9 polymerase processive synthesis inhibitors, primary screen, biochemical, absorbance; in vitro processive DNA synthesis, absorbance read-out; stronger effect = lower value; some inactives read as strong as hits; normalized absorbance, % (concentration not given with the values); AID 493162, 2011; 46,000 compounds, 0.94% hits; Vaccinia virus DNA polymerase (E9) processive complex;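 active = replicate mean up to 90% and picked by the depositor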;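 note: 100% = median of the test wells of a plate; 100 nL library stock went into each well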
Active calls of the source: *.

molecule,Vaccinia pol inh
O=C(Cc1ccccc1)c1c[nH]c(C(=O)NCCCn2ccnc2)c1,94
COc1ccccc1Nc1ncc(-c2cccs2)s1,107
CC(c1ccco1)N(C(=O)c1ccccc1F)c1ccccn1 (centres undefined),103
CC(=O)Nc1ccc(Cl)cc1C(=O)O,99
Cn1c(CCN)nc2ccccc21,100
CC(=O)Oc1cc2oc(=O)cc(C)c2cc1Cl,103
CC1=CC(C)=NC2=NN=C(NC(=O)Nc3ccc(Cl)c(Cl)c3)C12 (centres undefined),94
Cc1cccc(N2CN(Cc3ccco3)CNC2=S)c1,100
O=C(CN1CCOc2ccccc21)NC1CCCCCC1,98
CC(C)(C)NC(=O)C1C(=O)NC2(C)CC1c1ccccc1O2 (centres undefined),100
O=C(COC(=O)C1CCCCC1)Nc1ncc(C(F)(F)F)cc1Cl,90
CCc1nc(N)nc(N)c1-c1ccc(Cl)cc1,98
Cc1cc(C)c2c(n1)sc1c(SCC(=O)c3ccc(Br)cc3)ncnc12,110
CC(C)(C)OC(=O)/N=C(\N)n1cccn1,100
COCc1cc(C)nc2sc(C(=O)OC)c(N)c12,100
CN1CCN(/N=C/c2nc(-c3ccccc3)n3ccccc23)CC1,99
O=C(O)CCNS(=O)(=O)c1ccc(Br)cc1,100
O=C(O)c1ccccc1C(=O)c1cc(Cl)ccc1Cl,91
Cc1cc(C)cc(C(=O)Nc2ncn[nH]2)c1,102
CC(=O)Nc1ccccc1NC(=O)c1cccs1,93
Cc1ccc(NC(=O)C(c2ccccc2)N2CCc3ccccc32)cc1 (centres undefined),94
CNC(=O)c1sc(-c2ccccc2)nc1C,110
CCN(CC)S(=O)(=O)c1ccc(F)cc1,100
CC1(C)C=Cc2c(c3occc3c3oc(-c4ccccc4)cc(=O)c23)O1,80
O=C(CN1C(=O)c2ccccc2C1=O)N1CCN=C1c1ccccc1,100
O=C(/C(=C/c1cccs1)c1cccs1)N1CCCCCC1,95
C/C=C(\C)C(=O)Nc1ccccc1CC1c2ccccc2CCN1C (centres undefined),101
CCOC(=O)C1=C(N)Oc2ccc(Br)cc2C1C(C#N)C(=O)OCC (centres undefined),102
C=C1c2ccccc2NC(=O)N1c1ccc(C)cc1,100
CC(C)(C)n1nc2c(c1NC(=O)c1ccccc1)CSC2,101
CN(C)C(=O)c1coc2nc3ccccc3nc12,98
CC(C)(O)C12CC3CC(C1)CC(C(C)(C)O)(C3)C2,101
CCCNC(=O)Cn1cc2c(n1)CCCCC2,102
CC(C)CN(Cc1c(O)ccc2c(=O)c(-c3ccccc3)coc12)CC(C)C,91
COC(CN(C(C)=O)C1CCCc2c1[nH]c1ccc(C)cc21)OC (centres undefined),100
Cc1ccc(C(=O)N(C)c2ccc(OCC(=O)N(C)C3CCN(C)CC3)cc2)cc1,104
COc1cc(C(=O)NCC(c2ccccc2)c2c[nH]c3ccccc23)cc(OC)c1OC (centres undefined),100
Cc1ccc(CC2SC(=O)NC2=O)cc1Cl (centres undefined),81
CSc1ccccc1C(=O)Nc1ccc(Cl)cc1,96
COc1ccc(/C(O)=C/c2nc3ccc(C(=O)N4CCOCC4)cc3[nH]c2=O)cc1OC,80
Cc1cccc(OCC(=O)O)c1C,101
Cc1ccc(NCn2nnc3ccccc32)cc1,101
COC(=O)c1c(-c2c(Cl)cccc2Cl)noc1NC(=O)NCc1ccccc1,92
CCN(C(=O)Cc1noc2ccccc12)c1cc(OC)ccc1OC,100
CCCOc1ccc(C2(C(=O)O)CCCC2)cc1,100
Fc1ccc(NCc2cn(-c3ccccc3)nc2-c2cccs2)c(F)c1,103
CC(NC(=O)COc1ccc(C#N)cc1)C12CC3CC(CC(C3)C1)C2 (centres undefined),100
CCc1ccc(NS(=O)(=O)c2ccc3[nH]cc(C(=O)NC)c(=O)c3c2)cc1,92
CCOC(=O)c1[nH]c2ccccc2c1NC(=S)Nc1cccc(C)c1C,99
O/C(=C\SC1=NCCN1)C12CC3CC(CC(C3)C1)C2,102

(list continues)
molecule,Vaccinia pol inh
O=C(COc1ccccc1)NC1CCS(=O)(=O)C1 (centres undefined),97
C=CCNC(=S)Nc1sc2c(c1C#N)CCCC2,106
O=S(=O)(Cc1ccccc1)c1ccccc1,80
CCOC(=O)COc1cc2oc(C)c(-c3nc4ccccc4s3)c(=O)c2cc1CC,99
O=C1CSC(/N=C/c2ccccc2O)=NN1,99
Cc1cc2c(cc1C)NC(=O)c1ccccc1C(c1ccccc1)=N2,98
COc1cccc(C(=O)Nc2ccc(S(=O)(=O)Nc3nccc(C)n3)cc2)c1,100
Cc1cc(C)cc(C(=O)NCC(=O)O)c1,102
CC(C)CCNC(=O)c1ccc2c(SCC(=O)O)c3c(nc2c1)CCC3,104
COc1ccc(NC(=O)c2ccc3c(c2)OCCO3)cc1,100
N#Cc1cnn2c(N)c(-c3ccccc3)cnc12,113
O=C(NCc1nc(-c2ccccc2)no1)C1CCCCC1,89
COc1ccc(S(=O)(=O)N2CCCC2c2cccs2)cc1 (centres undefined),84
O=C(Cc1cccs1)Nc1cc(C(=O)O)cc(C(=O)O)c1,100
COc1cccc2sc(NC(=O)c3ccc(S(=O)(=O)N4CCCC(C)C4)cc3)nc12 (centres undefined),103
O=S(=O)(NC1CCCCC1SC1=NCCS1)c1ccc(Cl)cc1 (centres undefined),107
COC(=O)c1ccccc1-c1ccc(/C=C2\C(=O)N(C)C(=O)C(C#N)=C2C)o1,100
COc1cccc(N2CCN(S(=O)(=O)c3cc4c(cc3C)N(C)CCO4)CC2)c1,102
Cc1cc(S(=O)(=O)N2CCCN(c3nc4ccc(Cl)cc4s3)CC2)c(C)cc1Cl,111
CCc1ccc(C2CC(=O)NC3=C2C(=O)CC(C)(C)C3)cc1 (centres undefined),104
Cc1ccc(C(=O)COC(=O)c2ccc(-c3nnc(-c4ccccc4)o3)cc2)cc1C,100
CCc1c(O)nc(SCC(=O)N2CCc3ccccc32)n(-c2ccc(F)cc2)c1=O,103
CCOc1cc(CNc2ccc(NC(=O)CC)cc2)ccc1OCc1cccs1,101
C=CCn1c(=O)c2c(nc3n2CCCN3C2CCCCC2)n(C)c1=O,96
C=CC(=O)Nc1ccc(OC(F)(F)F)cc1,94

8 compounds drawn at random from the list so far, as already listed:
molecule,Vaccinia pol inh
CCN(CC)S(=O)(=O)c1ccc(F)cc1,100
CCOc1cc(CNc2ccc(NC(=O)CC)cc2)ccc1OCc1cccs1,101
CC(C)(C)NC(=O)C1C(=O)NC2(C)CC1c1ccccc1O2 (centres undefined),100
COC(=O)c1c(-c2c(Cl)cccc2Cl)noc1NC(=O)NCc1ccccc1,92
O=C(O)CCNS(=O)(=O)c1ccc(Br)cc1,100
CC1(C)C=Cc2c(c3occc3c3oc(-c4ccccc4)cc(=O)c23)O1,80
Cc1cc(C)c2c(n1)sc1c(SCC(=O)c3ccc(Br)cc3)ncnc12,110
O=C(COc1ccccc1)NC1CCS(=O)(=O)C1 (centres undefined),97

(more compounds)
molecule,Vaccinia pol inh
Cc1ccc(-c2nn(-c3ccccc3)cc2/C=C2\SC(=S)N(CCCC(=O)O)C2=O)cc1,100
CSc1sc(C(=O)Sc2ccccc2)c2c1S(=O)(=O)N(C)c1ccccc1-2,107
CSc1nnc(-c2ccccc2)n1-c1ccccc1,99
O=C(O)CCc1nnc2n(CCc3ccccc3)c(=O)c3ccccc3n12,94
CCOC(=O)c1cnc2c(C)cc(Cl)cc2c1NCc1ccccc1,100
COc1cccc(-c2nc(N)nc(SC)c2C#N)c1,94
O=S(=O)(Nc1ccc(Br)cc1)C(F)(F)F,113
NNC(=O)c1ccc(COc2cc(Cl)ccc2Cl)o1,94
CC(C)c1nnc(NC(=O)c2ccc3ccccc3c2)s1,100
Oc1ccccc1/C=N/n1cnnc1,82
COc1cccc2c1c(NC(=O)c1nccnc1C(=O)O)nn2C,98
CCOc1ccc2nc(SCC(=O)OC3CCCCC3)c(C)cc2c1,92
Cc1nc2cc(C(F)(F)F)ccc2n1C,88
Cc1ccc(S(=O)(=O)N2CCn3c2nc2ccccc23)cc1,87
CC1(C)NCCC12C(=O)N(Cc1ccccc1)c1ccccc12 (centres undefined),99
O=C(COC(=O)c1cccs1)Nc1c(F)c(F)c(F)c(F)c1F,103
COc1ccc(/C=C/C(=O)OC2CCCCC2)cc1,101
CCC(=O)c1cc(F)ccc1O,87
O=c1nccc(NCc2ccco2)[nH]1,101
Cc1nc2ncnn2c(C)c1CCC(=O)N1CCCCC1,84
Brc1ccc(CSc2c[nH]c3ccccc23)cc1,101
COc1ccc2c(c1)sc(=NC(=O)CSCC(=O)NC1CCCCC1)n2C,102
C=CCn1c(=N)n(CC(O)COc2ccc(C)cc2)c2ccccc21 (centres undefined),106
Cc1ccc(CCNC(=O)c2cccc3c2SCCC3=O)cc1,109
CN(C)CCCNc1ncnc2c1cnn2-c1ccccc1,99
O=S(=O)(CCN1CCOCC1)c1ccc(OC(F)(F)F)cc1,89
CC(=O)Nc1ccc(SC(F)(F)F)cc1,93
COc1ccc(-c2nc(C)c(CCNS(=O)(=O)N(C)C)s2)cc1,102
C=CC1CCC(N(Cc2ccccc2)S(=O)(=O)c2ccc(C)cc2)C(O)C1 (centres undefined),100
O=C(Nc1cccc(Cl)c1)N1CCN(CCO)CC1,100
Cc1ccc(N2Cc3cc(C)c(C)cc3C2)cc1,100
CC(C)C(=O)Nc1ccccc1-c1nc2ccccc2[nH]1,94
FC(F)(F)Oc1ccc(N=Cc2cccs2)cc1,108
O=C1CCC(c2ccccc2)CC1,66*
Cc1cc(Br)ccc1NC(=S)Nc1cccc(NC(=O)c2ccccc2O)c1,105
COc1ccc(OCC(=O)NC(=S)N2CCCc3ccccc32)cc1,100
CCOC(=O)c1c(N)nn(C(=O)CC)c1-c1ccccc1,101
Cc1ccc2nc(NC(=O)OC(C)(C)C)sc2c1,100
COC(=O)c1ccc(/C=C2/SC(=S)N(CCC(=O)N(Cc3ccccc3)C(C)(C)C)C2=O)cc1,100
CNC(=O)c1nnc(-c2ccccc2)o1,105
O=C(Nc1ccc2sccc2c1)c1cccs1,96
O=C(CNC(=O)c1ccccc1)OCc1c(Cl)cccc1Cl,95
Cc1[nH]c(-c2ccc(F)cc2)cc1C(=O)N(C)Cc1ccco1,107
CCCCN(C)S(=O)(=O)c1ccc2c(c1)oc(=O)n2C,94
Cc1cc2cc(CNC(=O)CCc3ccccc3)ccc2n1C,97
O=S(=O)(NCCN1CCCC1)c1ccc(Cl)cc1,87
CC(C)NC(=O)c1nnc(Cc2cccc(Cl)c2)o1,81
C=C(C)C1=NC(C)(C)CC(C)O1 (centres undefined),100
Cc1ccc(S(=O)(=O)NC2CCOC(C)(C)C2)cc1 (centres undefined),100
O=C(OCCN1CCCC1=O)c1ccco1,102

Remaining list, next part:
molecule,Vaccinia pol inh
COc1ccc(-c2nc3ccccc3n2C(=O)c2ccccc2C(=O)O)cc1OC,104
N#Cc1ccsc1NC(=O)CCc1ccccc1,96
Cc1cccnc1NC(=O)c1cc2ccccc2oc1=O,103
Cc1ccccc1N=C1C(=O)N(CN2CCC(C)CC2)c2ccccc21,100
Cc1cc(NC(=O)Nc2cccs2)no1,99
NC(=O)C1CCN(C(=O)c2ccc3nc(N4CCCCC4)sc3c2)CC1,100
COC(=O)Cc1c(C)nc2nc[nH]n2c1=O,99
COc1cc(OC)c(OC)cc1CN1CCN(C(=O)c2ccco2)CC1,103
CC(C)N(C(=O)c1ccc(-c2ccccc2F)cc1)C(C)C,100
O=C(CC(C(=O)O)N1CCN(c2ccc3c(c2)OCO3)CC1)c1ccc(C2CCCCC2)cc1 (centres undefined),97
O=c1c2ccccc2[nH]c(=S)n1-c1ccc(Cl)c(Cl)c1,107
Cc1ccccc1NC(=O)C1c2cccc[n+]2CC(=O)N1Cc1ccc2c(c1)OCO2 (centres undefined),104
CCc1ccc(N=Cc2c(O)[nH]c(=S)[nH]c2=O)cc1,100
S=C(NCC1COc2ccccc2O1)NC1CCCCC1 (centres undefined),97
CCOC(=O)CSc1cc(Cl)c2cccc(C)c2n1,101
CC(C)(C)SC(=O)c1cccnc1SCCS(=O)(=O)c1cccc(C(F)(F)F)c1,102
Oc1ccc(-c2ccccc2)c(F)c1,88
O=C1/C(=C/c2ccco2)Cc2ccccc21,89
CCCOc1ccc(C(=O)Nc2ccc3c(c2)Cc2ccccc2-3)cc1,100
Cc1ccc(C(=O)CN(Cc2ccccc2)Cc2ccccc2)cc1,110
Cc1ccc(C)c(CSc2nncn3c2cc2occc23)c1,91
O=S1(=O)N=C(Nc2nc(-c3ccccc3)cs2)c2ccccc21,105
Cc1[nH]ccc(=O)c1OCc1ccccc1,99
C=CCn1c2ccc(Br)cc2c2n[nH]c(=S)nc21,100
CCOC(=O)c1ccc(NC(=O)c2ccco2)cc1,99
O=S(=O)(Cc1ccccc1Cl)N1CCN(Cc2ccc3c(c2)OCO3)CC1,100
Cc1cc(C(=O)O)c(C)n1-c1cc(C(F)(F)F)cc(C(F)(F)F)c1,100
CCc1ccc(NC(=O)Cn2ncn3cccc3c2=O)cc1,99
Cc1ccc(-c2nnc(N3CCCCC3)c3ccccc23)cc1S(=O)(=O)NCc1ccccn1,99

Ordered by length of the SMILES (high to low): three of the compounds above.
molecule,Vaccinia pol inh
NC(=O)C1CCN(C(=O)c2ccc3nc(N4CCCCC4)sc3c2)CC1,100
CC(c1ccco1)N(C(=O)c1ccccc1F)c1ccccn1 (centres undefined),103
COc1ccc(/C=C/C(=O)OC2CCCCC2)cc1,101

Only part of the results is shown. The share of hits here may be higher or lower than overall.
